# TRPML1 ag: qHTS for Agonists of the Human Mucolipin Transient Receptor Potential 1 (TRPML1). TRPML1-expressing cells, Ca2+ dye fluorescence, FDSS; host cell line not named in the record; reference of the full effect not given here. activation, % (concentration not given with the values). 0.12% of 410,000 active. AID 624414, 2012; in the data active = activation above about 50%; inconclusive = about 30% to 50%; inactive = below about 30%; note: 0% is about no effect; the text of the record puts the active cut at 80%
# Target sequence (Q9GZU1 whole entry, looked up): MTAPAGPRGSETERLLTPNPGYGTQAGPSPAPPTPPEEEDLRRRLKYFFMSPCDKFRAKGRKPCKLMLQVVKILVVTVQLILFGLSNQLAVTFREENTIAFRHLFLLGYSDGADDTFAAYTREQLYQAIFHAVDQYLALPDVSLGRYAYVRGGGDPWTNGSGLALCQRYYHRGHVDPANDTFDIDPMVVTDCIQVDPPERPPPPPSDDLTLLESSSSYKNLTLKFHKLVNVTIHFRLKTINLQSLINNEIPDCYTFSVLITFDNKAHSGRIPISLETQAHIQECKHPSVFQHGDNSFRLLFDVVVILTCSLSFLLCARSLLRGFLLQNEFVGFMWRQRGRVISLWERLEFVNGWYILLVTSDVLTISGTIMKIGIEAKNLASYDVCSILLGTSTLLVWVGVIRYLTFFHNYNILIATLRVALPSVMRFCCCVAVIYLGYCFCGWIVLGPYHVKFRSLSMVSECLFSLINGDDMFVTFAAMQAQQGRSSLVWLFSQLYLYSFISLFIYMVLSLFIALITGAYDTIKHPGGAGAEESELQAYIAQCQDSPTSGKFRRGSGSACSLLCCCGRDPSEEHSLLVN
#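 Agonist activity was taken from a 110 s kinetic Ca2+ dye read on the FDSS after pinning compounds onto TRPML1-DL cells. The cells were seeded at 1,500/well with Tet inducer, incubated about 16 h, then dye-loaded at room temperature.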
# ClpP mod: qHTS Assay for Activators of ClpP. ATP-dependent Clp protease proteolytic subunit (Bacillus subtilis (strain 168)), P80244. Potency, µM (series often up to 57.5 µM), for the others: at the highest dose activity change, negative = active. 1.9% of 340,000 active. purified B. subtilis ClpP, FRET peptide cleavage, 20 min. AID 651965, 2013; active = well fitted falling curve with a large enough effect; inconclusive = small, poorly fitted or top-dose-only effect; inactive = no such curve, though single readings can be large or run the other way; note: potency is the fitted concentration of half-maximal effect; the source files actives as falling curves though it sought activators and does not explain the sign; nearly all actives have a fitted effect of over 65% in size; many hits overshoot -100%
# Target sequence (P80244 whole entry, looked up): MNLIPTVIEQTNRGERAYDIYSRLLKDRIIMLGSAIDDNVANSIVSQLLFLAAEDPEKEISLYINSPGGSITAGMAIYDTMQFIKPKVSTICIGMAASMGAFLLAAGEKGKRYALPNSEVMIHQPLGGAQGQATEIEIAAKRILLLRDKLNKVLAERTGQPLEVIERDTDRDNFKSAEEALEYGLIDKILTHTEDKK
#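 ClpP 10 microg/mL final, pH 8 Tris/KCl buffer with BSA, glycerol, Tween-20; compound pinned in; FRET-FV substrate; RT 20 min; Ex320/Em430; ΔFRET vs ADEP 5.8 microM, DMSO, no enzyme.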
# Starred values were filed as active, the others as inactive; ? = inconclusive. These rows are one share of the data (hit frequency here may not be typical).
SMILES,ClpP mod,TRPML1 ag
CC1(C(=O)NS(=O)(=O)c2ccc(Cl)s2)CCN1C(=O)Cc1cc(F)ccc1F (stereo not given),0.1%,-0.2
O=c1[nH][nH]c2c1[C@@H](c1ccc(F)cc1)O[C@H](CCOCc1ccccc1)C2,-0.3%,-1.0
CC(C)(C)c1ccc(S(=O)(=O)NC(=O)C2(C)CCN2C(=O)c2cccc3ccccc23)cc1 (stereo not given),-3.5%,0.2
CC1(c2nc3ccccc3[nH]2)c2ccccc2C(=O)N1Cc1ccccc1 (stereo not given),-0.3%,0.1
O=C(NCc1cccc(Cl)c1)C1Cc2c(-c3cccc(F)c3)ccnc2O1 (stereo not given),-0.9%,-0.8
CC1(C(=O)NCc2ccccc2)CCC(=O)N1CCc1c[nH]c2ccccc12 (stereo not given),-5.9%,-0.3
CC(=NOC(=O)c1ccc(F)cc1)c1nccs1,-3.4%,-1.1
O=C(NCc1ccccc1)c1cc(C2CCCCN2C(=O)CCCc2ccccc2)on1 (stereo not given),-1.6%,1.3
Cc1ccc(C)c(CC(=O)N2CCCCC2c2cc(C(=O)Nc3cccc(C#N)c3)no2)c1 (stereo not given),-6.2%,2.7
CCCS(=O)(=O)NC(=O)C1(C)CCCN(C(=O)c2ccncc2)C1 (stereo not given),0.1%,-0.5
COC(=O)c1ccc2nc(-c3cccc(Br)c3)c(Cc3cccc(F)c3)n2c1,-20.0%,0.2
COc1ccc(OC)c(CN2C(=O)CCC2(C)c2nnnn2-c2c(C)cccc2C)c1 (stereo not given),1.0%,0.6
CC(=O)Nc1cc(-c2cccc(C(=O)N(C)C)c2)cn2c(-c3ccccc3)cnc12,-22.2%,-1.1
COC(=O)c1ccc2nc(-c3ccc(F)cc3)c(Cc3cccc(F)c3)n2c1,-11.2%,0.5
CC1=C(C(=O)N(C(C)C)C(C)C)CC(CC(=O)NC2CCCC2)C(=O)N1Cc1ccc(C(C)(C)C)cc1 (stereo not given),0.2%,-0.3
COC(=O)[C@]12CCCCC=C1N(Cc1ccc(Cl)cc1Cl)C(=O)[C@H](CC(=O)N1CCN(C(=O)C3CC3)CC1)C2,0.0%,-0.2
COCCNC(=O)C1(C)CCCN(Cc2ccc(Cl)c(Cl)c2)C1 (stereo not given),-1.6%,-0.7
CC(=O)NC(C)(c1ccccc1)c1nc(-c2cc(F)cc(F)c2)cs1 (stereo not given),-0.2%,-0.7
CN1CCOc2cc(S(=O)(=O)N3CCN(c4nc(-c5cccs5)nc5ccccc45)CC3)ccc21,?,-0.3
COc1ncccc1-c1cnc2cccnn12,4.4%,-0.2
COc1ccc(C(C)(O)c2nc(-c3cc(F)cc(F)c3)cs2)cc1 (stereo not given),0.4%,1.0
CCCC(=O)N1CCOCC1c1cc(C(=O)NCc2ccccc2)no1 (stereo not given),0.7%,-0.3
CN(CCc1ccccc1)C(CCc1ccccc1)C(=O)Nc1ccc2c(c1)OCCO2 (stereo not given),-1.1%,0.1
COc1ccc(-c2ccc(N3C(c4ccsc4)=Cc4ccc(F)cc4C3c3c[nH]c4ccccc34)cc2)cc1 (stereo not given),3.5%,-0.7
COC(=O)[C@]12CCCCC=C1N(Cc1ccccc1)C(=O)[C@H](CC(=O)NCCCN1CCCC1=O)C2,-2.8%,0.2
O=C(/C=C/[C@H]1O[C@@H](n2cnc3c(NC(=O)c4ccccc4)ncnc32)[C@H](O)[C@@H]1O)NCc1ccc2c(c1)OCO2,0.6%,0.1
NC1CCc2ccc([N+](=O)[O-])cc21 (stereo not given),-0.9%,-0.2
CCCCC[C@@H](C)N1C[C@@H](COCc2ccccc2)Oc2cc(N3CCC[C@H]3COC)ccc2S1(=O)=O,-10.8%,0.3
CC(C)Nc1nc(NCCOc2ccccc2)c2sccc2n1,-14.7%,-1.0
CCc1ccc(C(O)c2ncc(-c3cccc4ccccc34)[nH]2)cc1 (stereo not given),4.6%,-1.0

# New compounds follow.
SMILES,ClpP mod,TRPML1 ag
Cc1ccc(S(=O)(=O)N2CCN(c3nc(-c4ccc(C)s4)nc4ccccc34)CC2)cc1,4.5%,0.8
CC1(C(=O)Nc2cccc(C(F)(F)F)c2)Cc2c(-c3ccc4c(c3)OCO4)ccnc2O1 (stereo not given),4.8%,-0.2
O=C(Cn1cc(COc2ccc(-n3cccc3)cc2)nn1)NS(=O)(=O)c1ccccc1C(F)(F)F,1.6%,-0.7
CC(=NNC1=NCCN1)c1cn(C2=NCCN2)nc1C,-1.6%,-0.5
CCc1nc2ccc(C(=O)N(CC)CCN(C)C)cn2c1N(C)Cc1nccs1,-4.4%,-0.3
Cc1nc(C(F)(F)F)ccc1C(=O)N1CCC1(C)C(=O)NS(=O)(=O)c1ccc(C(C)(C)C)cc1 (stereo not given),-0.3%,-0.2
c1ccc(C[C@H]2CN=C(Nc3ccccc3)N2CC2CCCC2)cc1,-1.9%,1.1
Cc1cc(C(=O)N2CCC2(C)C(=O)Nc2cccc3ccccc23)nn1C (stereo not given),3.6%,-0.6
CC(C)c1ccc(NC(=O)Nc2nnc([C@@H]3C[C@H](O)[C@@H](CO)O3)s2)cc1,1.0%,0.0
O=C(c1ccccc1)N(CCCn1ccnc1)C(c1ccccc1)c1nc2ccccc2[nH]1 (stereo not given),0.4%,-0.3
CC1(C(=O)Nc2cnc3ccccc3c2)CCN1Cc1ccc(-c2ccccc2)o1 (stereo not given),-6.1%,-0.3
CC(=O)c1ccc(OC2(C)CCN(Cc3ccc(C)cc3)C2)cc1 (stereo not given),-4.6%,-0.7
COc1ccccc1Cc1c(C2CCCCC2)nc2ccc(C)cn12,5.5%,0.2
CCOC(=O)C1(C)CCN1C(=O)c1ccccc1 (stereo not given),0.2%,-0.4
CN(C)CCNc1ncnc2c1ncn2[C@H]1CN(Cc2ccco2)C[C@@H](CO)O1,-2.0%,-0.1
O=C(c1ccc(C(F)(F)F)cc1)N1CCC(=O)N([C@H](COCc2ccccc2)Cc2ccccc2)CC1,1.2%,-0.6
O=S(=O)(c1ccccc1)N1CCN(S(=O)(=O)c2ccccc2)CC1,-0.5%,-1.0
Nc1nc(=O)n(C2CC(O)C(CO)O2)cc1Cl (stereo not given),1.2%,-0.5
CN(CC(=O)O)c1ccc(/C=C/c2ccnc3ccccc23)cc1,-0.9%,15.6
CC(O)(c1ccccc1)c1nc(-c2ccncc2)cs1 (stereo not given),-14.7%,-1.1
COc1cc(OC)nc(Nc2nc(C(N)COCc3ccccc3)cs2)n1 (stereo not given),0.1%,0.6
COc1ccc(NC(=O)C2Cc3c(-c4ccc(NC(C)=O)cc4)ccnc3O2)cc1OC (stereo not given),-14.9%,-0.7
Cc1cccc(C)c1-n1nnnc1C(c1ccnc2ccccc12)N(C)Cc1ccccc1 (stereo not given),1.7%,-0.6
COc1ccc(CN2C(=O)CCC2(C)c2nnnn2Cc2ccccc2)cc1OC (stereo not given),-2.2%,-0.4
COc1ccc(CC(N)c2csc(NC(=O)c3cccs3)n2)cc1 (stereo not given),-2.4%,2.7
CC(C)n1nnnc1C1c2ccccc2C(=O)N1CCCN1CCOCC1 (stereo not given),1.7%,-0.7
COc1ccccc1CNc1nc(NCCNC(C)=O)c2sccc2n1,-22.8%,-1.0
COc1cccc(-c2cnc(C(O)c3ccccc3OC)[nH]2)c1 (stereo not given),-6.6%,-0.6
CN[C@H]1C[C@H]2c3cc(Oc4ccccc4C)ccc3CCN2C(=O)[C@H]1[C@H](C)O,-4.9%,-0.2
CCOc1ccc(NC(=O)COC(=O)c2ccccc2OCc2ccccc2Br)cc1,-14.1%,0.4

# Other structures follow.
SMILES,ClpP mod,TRPML1 ag
Cn1nc(C(C)(C)C)cc1C(=O)N1CCCCC1c1cc(C(=O)Nc2ccc(F)c(Cl)c2)no1 (stereo not given),-16.3%,0.2
CC(C)CCN1C(=O)c2ccccc2C1c1nnnn1Cc1ccccc1 (stereo not given),-1.3%,1.9
COc1ccc(CN(Cc2ccccc2)C(=O)c2cccc(C#N)c2)cc1COc1ccc(NC(C)=O)cc1,0.4%,0.0
O=[N+]([O-])c1ccccc1S(=O)(=O)NCc1ccccn1,-3.5%,-0.1
COCCNC(=O)C1(C)CCCN(Cc2ccc(-n3ccnc3)cc2)C1 (stereo not given),-0.2%,0.0
COc1ccc(C#Cc2cnc(Cl)c3cncnc23)cc1OC,?,0.8
O=Cc1ccc(O)cc1,2.0%,-0.6
CC(C)c1ccc(CC(=O)N2CCC2(C)C(=O)NS(=O)(=O)c2ccc(Cl)s2)cc1 (stereo not given),-0.4%,-0.3
O=S1(=O)C=C[C@@H](CO)N1Cc1ccc(Br)cc1,-0.8%,-0.7
COc1cc(C)ccc1S(=O)(=O)NC(=O)C1(C)CCN1C(=O)C1(c2ccc(Cl)cc2)CCC1 (stereo not given),1.3%,-0.2
COc1ccccc1Cc1c(C(C)(C)C)nc2cc(C)c(Br)c(C)n12,-4.4%,-0.4
OC(c1ccccc1)(c1nc(-c2ccc3ccccc3c2)cs1)C(F)(F)F (stereo not given),-19.2%,2.3
CCOC(=O)C1=CCC(c2cccc(C)c2)N(S(=O)(=O)c2ccc(C)cc2)C1 (stereo not given),-5.7%,0.9
COCCNC(=O)C1CCCN(Cc2ccccc2Cl)CC1 (stereo not given),0.3%,-0.6
CCCCc1c(-c2ccccc2OC)ncn1CCc1ccc(OC)cc1,-3.4%,3.6
CC1(C(=O)Nc2ccc3ccccc3c2)CCC(=O)N1C1CC1 (stereo not given),-1.6%,-0.3
CCc1nc2ccc(C(=O)N3CCN(C(C)=O)CC3)cn2c1N(C)C(=O)c1cccc(OC)c1,-2.7%,-0.4
CC1(C(=O)NCc2ccc(F)c(F)c2)Cc2c(-c3ccccc3)ccnc2O1 (stereo not given),-11.1%,-0.3
O=C(Nc1ccccc1Br)c1cnn2c1NC(=C1CC1)C=C2C(F)F,154.5%,-0.5
O=C1c2ccccc2C(=O)N1c1ccc(S(=O)(=O)N2CCOCC2)cc1,2.8%,-0.8
CCc1nc2ccc(C(=O)N(CC)CCN(C)C)cn2c1N(C)Cc1cccs1,-5.0%,0.4
Brc1cccc[n+]1CCCC[n+]1ccccc1Br,?,-0.4
CS(=O)(=O)c1cccc(-c2ccc3nncn3c2)c1,?,-0.2
Nc1nc2cc(Cl)ccc2n1N,0.9%,-0.3
O=C(C[n+]1ccc(/C=C/c2c[nH]c3ccccc23)c2ccccc21)c1ccccc1,-4.6%,5.3
COC(=O)[C@]12CCCCC=C1N(Cc1cccc3ccccc13)C(=O)[C@H](CC(=O)N1CCSCC1)C2,-3.7%,0.0
O=C(C[n+]1cccc(C(=O)Nc2ccccc2)c1)c1ccccc1,1.1%,2.8
COc1cccc(CNC(=O)[C@@H]2CCCN2C(=O)OC(C)(C)C)c1,-2.6%,-0.4
O=C(NCc1ccncc1)[C@@H]1CCCN1C(=O)[C@H]1CCCN1,3.4%,0.1
O=C(C[n+]1ccccc1Br)c1ccc(Cl)cc1,0.4%,-0.6

# Next section
SMILES,ClpP mod,TRPML1 ag
CCCN1CNc2c(c(=O)[nH]c(=S)n2CCc2ccc(OCC)c(OCC)c2)C1,-1.6%,-0.7
CCc1nc2ccc(C(=O)NCCN3CCNC3=O)cn2c1N(CCC(C)C)CCN(C)C,-5.3%,-0.1
CCCCCCCCN1C(=O)[C@H](CC(=O)N2CCCCC2)C[C@@]2(C(=O)OCC)CCCC=C12,0.7%,-0.3
CC(=O)c1cccc(NC(=O)C2Cc3c(-c4ccco4)ccnc3O2)c1 (stereo not given),-9.9%,-0.9
O=C(c1cc2ccccc2[nH]1)c1cc2cc(O)ccc2[nH]1,-0.8%,-0.8
O=C(Nc1ccc(Cl)cc1Cl)[C@@H]1CC=C[C@@H]2CCN(C3CC3)C(=O)[C@@H]21,2.4%,-0.4
CCOC(=O)C1(C)CCN1C(=O)c1cc(C)oc1C (stereo not given),0.7%,-0.4

# Structural class: the entries above containing a thiophene ring, fused or not (9)
SMILES,ClpP mod,TRPML1 ag
CC1(C(=O)NS(=O)(=O)c2ccc(Cl)s2)CCN1C(=O)Cc1cc(F)ccc1F (stereo not given),0.1%,-0.2
CN1CCOc2cc(S(=O)(=O)N3CCN(c4nc(-c5cccs5)nc5ccccc45)CC3)ccc21,?,-0.3
COc1ccc(-c2ccc(N3C(c4ccsc4)=Cc4ccc(F)cc4C3c3c[nH]c4ccccc34)cc2)cc1 (stereo not given),3.5%,-0.7
CC(C)Nc1nc(NCCOc2ccccc2)c2sccc2n1,-14.7%,-1.0
Cc1ccc(S(=O)(=O)N2CCN(c3nc(-c4ccc(C)s4)nc4ccccc34)CC2)cc1,4.5%,0.8
COc1ccc(CC(N)c2csc(NC(=O)c3cccs3)n2)cc1 (stereo not given),-2.4%,2.7
COc1ccccc1CNc1nc(NCCNC(C)=O)c2sccc2n1,-22.8%,-1.0
CC(C)c1ccc(CC(=O)N2CCC2(C)C(=O)NS(=O)(=O)c2ccc(Cl)s2)cc1 (stereo not given),-0.4%,-0.3
CCc1nc2ccc(C(=O)N(CC)CCN(C)C)cn2c1N(C)Cc1cccs1,-5.0%,0.4
